Source: PubChem
Mtb betalactam: beta-lactam sensitization of Mtb H37Rv, H37Rv; M. tuberculosis H37Rv growth with meropenem, percent inhibition; hits of this screen are not shown here; inhibition, % at 25 µM; actives 0.27% (n = 330,000); AID 434955, 2010;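 active = about 74% or more and at least 40 points above the plate without the antibiotic, then above 30% in a dose series; inconclusive = first-round hits that could not be retested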;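 also: growth measured after seven days incubation then overnight dye step; 0% = bacteria only wells and 100% = bacteria with antibiotic; twin plates without the antibiotic show which effects depend on it; some results filed as inactive read as strong as hits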
Arbovirus inh: antivirals against arbovirus infection, primary screen, cell-based, full library, 10K replicate subset; arbovirus infection cell-based antiviral screen; actives 0.37% (n = 200,000); inhibition, % at 10 µM;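 active = inhibition from about 30%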;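 also: bluetongue infection of BSR cells; cell survival read as ATP light after 72 h; 0% = infected wells without compound and 100% = uninfected wells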
RecA intein inh: Mtb RecA intein splicing inhibitors, primary screen, biochemical, fluorescence, HTS; inhibition, %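 (about 9 µM by stock and volumes)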; actives 0.75% (n = 290,000); cell-free RecA intein splicing; AID 2221, 2009; in the data active = inhibition above about 30%; inconclusive = no clear call, values can overlap the other calls;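 also: 0% = vehicle wells and 100% = reference inhibitor control wells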
Target sequence (P9WHJ3 whole entry, looked up): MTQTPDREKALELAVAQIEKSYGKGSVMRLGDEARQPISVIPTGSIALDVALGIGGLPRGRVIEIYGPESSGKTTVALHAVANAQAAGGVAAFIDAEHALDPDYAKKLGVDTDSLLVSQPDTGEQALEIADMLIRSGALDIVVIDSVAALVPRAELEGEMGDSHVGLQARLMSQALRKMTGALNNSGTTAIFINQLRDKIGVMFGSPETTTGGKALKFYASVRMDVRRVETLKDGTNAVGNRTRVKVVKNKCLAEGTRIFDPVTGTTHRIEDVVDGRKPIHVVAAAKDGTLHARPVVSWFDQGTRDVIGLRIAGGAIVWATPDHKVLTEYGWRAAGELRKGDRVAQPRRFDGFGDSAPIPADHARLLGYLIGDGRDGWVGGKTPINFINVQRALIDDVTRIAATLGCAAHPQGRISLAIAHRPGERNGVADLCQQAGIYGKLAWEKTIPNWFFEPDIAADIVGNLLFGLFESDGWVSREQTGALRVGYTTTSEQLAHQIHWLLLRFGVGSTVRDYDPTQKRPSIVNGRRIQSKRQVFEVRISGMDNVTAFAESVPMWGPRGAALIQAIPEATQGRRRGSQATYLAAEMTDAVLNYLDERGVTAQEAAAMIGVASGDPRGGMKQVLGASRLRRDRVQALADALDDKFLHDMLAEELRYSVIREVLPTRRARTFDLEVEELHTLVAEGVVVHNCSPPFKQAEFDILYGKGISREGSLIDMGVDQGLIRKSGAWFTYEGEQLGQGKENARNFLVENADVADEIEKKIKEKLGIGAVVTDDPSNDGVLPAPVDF
YopH PTP inh: YopH tyrosine phosphatase inhibitors, primary screen, biochemical, fluorescence Ex485/Em525; inhibition, %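 (about 10 µM by stock and volumes)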; actives 0.16% (n = 140,000);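 active = inhibition of 50% or more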;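 also: controls were vehicle for no effect and minimum signal wells for full effect; inactives centre near -20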
Mtb H37Rv: M. tuberculosis H37Rv growth inhibitors, H37Rv strain (AID 1626); M. tuberculosis H37Rv growth inhibition; higher % means a stronger effect; actives 0.95% (n = 220,000); inhibition, % at 10 µM, or IC50 in µM where a hit was titrated;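 active = confirmed in a dose series; inconclusive = inhibition above 80% but not taken into the dose series; inactive = below 80% or under 30% at every dose of the series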;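 also: bacteria incubated seven days before Alamar blue readout; 0% = bacteria only wells and 100% = bacteria with antibiotic wells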
Arbovirus inh repeat: second read-out of Arbovirus inh, no call of its own (marks repeat the call); inhibition, %; measured here: 10K subset replicate screen; many hits read low in the repeat;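 first of two repeat runs on a subset; 0% = infected and 100% = uninfected wells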
* marks the source's active call; other numbers are inactive results; ? = inconclusive; . = no result given. Not all compounds are listed; rates above refer to the full screens.

SMILES	Mtb betalactam	Arbovirus inh	RecA intein inh	YopH PTP inh	Mtb H37Rv	others
CN(C)/C=C/C(=O)/C=C/c1cn(-c2ncc(C(F)(F)F)cc2Cl)c2ccccc12	-4	-9	-6.3	1	6%
C=CC1CN(CC(=O)OC)S(=O)(=O)c2ccccc21 (stereo not given)	-7	.	0.7	.	-10%
CNc1nc(N/N=C/c2ccc([N+](=O)[O-])cc2)nc(Nc2ccccc2)n1	6	0	-0.7	-18	9%
c1cnn(-c2cc(N3CCOCC3)ncn2)c1	-2	-2	-13	-8	2%
CCCCOc1ccc(C(=O)N(Cc2ccco2)C2CCS(=O)(=O)C2)cc1 (stereo not given)	-1	.	1.5	.	.
COc1ccccc1NC(=S)NCc1ccccc1	2	.	0.5	.	.
CC(=O)N1c2ccc(S(=O)(=O)NCCC(=O)Nc3cccc(Cl)c3)cc2CC1C (stereo not given)	-4	.	-0.3	.	.
O=S(=O)(c1cc(F)ccc1F)N1CCC2(CC1)OCCN2S(=O)(=O)c1cccs1	-7	.	4.6	.	.
CCOC(=O)C1=NN(C(=O)Cc2ccccc2)C(O)(C(C)(C)C)C1 (stereo not given)	0	1	0.4	.	-2%
CCn1cc(C(=S)N2CCC(C(N)=O)CC2)c2ccccc21	1	13	1.4	.	-3%
O=C(CN1CCN(S(=O)(=O)c2ccc(Cl)cc2)CC1)Nc1ccc(N2CCOCC2)cc1	1	-12	-2.4	-36	-9%
CCCCCN(C(=O)CCC(=O)OC(C)C(=O)NCc1ccccc1)c1c(N)n(CCCC)c(=O)[nH]c1=O (stereo not given)	-3	.	0.9	.	.
CCOc1cc2c(C#N)c(N3CCOCC3)nc(N)c2c(N)n1	6	-14	-6.5	.	-5%
COc1ccc(OCc2nnc(NC(=O)Nc3ccc(F)cc3)s2)cc1	0	-6	4.6	.	-2%
Cc1cc(Br)ccc1NC(=O)c1sc2ncn(CC(=O)N3CCN(c4ccccn4)CC3)c(=O)c2c1C	6	.	4.4	.	.
CC1CN(C(=O)C(C)N2C(=O)c3ccccc3C2=O)CC(C)O1 (stereo not given)	3	-2	0.8	-23	-6%
O=c1[nH]c(CN2CCN(c3ncccn3)CC2)nc2c(Br)cc(Br)cc12	78	.	-0.2	.	21%
Cc1cc(C)c2c(n1)SCC(=O)N2CC(=O)Nc1ccccc1Cl	?	.	-0.1	.	.
C/C(=N\NC(=O)CSc1nc2ccccc2[nH]1)c1ccncc1	2	-8	-3.1	.	0%
COCCNC(=O)Nc1ccc2nc(-c3ccco3)c(-c3ccco3)nc2c1	0	5	.	.	-6%
CCO/C(C)=N/n1c2nc3ccccc3nc2c2c(=O)n(C3CCCC3)c(C)nc21	-7	-4	-2.5	-10	-5%
CC(=O)/C=C/n1c(=S)oc2ccccc21	94	-44	7.6	-9	22%
CCN(CC)S(=O)(=O)c1cccc(NC(=O)COC(=O)/C=C/c2ccco2)c1	1	9	10	-15	3%
CC(=O)Oc1ccc(/C=C2/CCc3ccccc3C2=O)cc1	73	.	22	.	-5%
CCN(CC(=O)Nc1ccccc1C(F)(F)F)C(=O)c1oc2ccc(OC)cc2c1C	3	.	6.0	.	.
CCOC(=O)N/N=C/c1cc(OC)c(O)c(OC)c1	-4	5	-4.3	-9	-1%
CC(C)CCn1c(=O)c2sccc2n2c(CCCC(=O)N3CCN(c4ccccn4)CC3)nnc12	1	.	-3.4	.	.
Cc1cc(C(=O)N(C)CC(=O)Nc2cccc(F)c2)no1	-9	.	0.0	.	.
Cn1c2ccc(F)cc2c2nnc(SCC(=O)Nc3cccc(O)c3)nc21	1	.	1.6	.	.
O=C(CN1CCCc2ccccc21)NC(=O)NCc1ccccc1	-1	.	-2.0	.	0%
COCCCn1c(SCC(=O)Nc2ccc(NC(=O)c3ccco3)c(OC)c2)nc2ccccc2c1=O	-3	-2	.	6	5%
Cc1cc(C(=O)Cn2cc(C(F)(F)F)ccc2=O)c(C)n1-c1ccccc1	5	-2	1.5	-21	2%
Cc1ccc(S(=O)(=O)NC(=O)Nn2c(C)nnc2C)cc1	-9	14	0.4	-9	-14%	Arbovirus inh repeat=2
CCOc1ccccc1-c1nc2c(C(C)(C)C)nn(C)c2c(=O)[nH]1	-8	4	0.8	.	-8%
CSc1ccccc1OCc1cc(C(=O)NC(C)c2cnn(C)c2)no1 (stereo not given)	-3	.	0.7	.	.
CCOc1cccc(CN2CCC(N3CCC(C(=O)NCC4CCCO4)CC3)CC2)c1 (stereo not given)	0	.	-1.1	.	.
COc1cc2c(cc1OC)C(c1cc3ccccc3oc1=O)=NC(C)(C)C2	-11	-18	-0.1	-30	1%
CC(=O)c1cccc(NC(=O)CSc2ccc(-c3sc(C)nc3C)nn2)c1	-9	.	-4.8	.	.
COc1cccc(C2CC(C(F)(F)F)n3nc(C(=O)NCc4cccnc4)cc3N2)c1 (stereo not given)	-2	1	0.0	-4	-1%
O=C(OCC#CCSc1nnc(-c2cccc3ccccc23)o1)c1ccco1	97	0	8.6	-13	65%
CCC1Oc2ccccc2N(CC(=O)NCc2cccs2)C1=O (stereo not given)	-2	9	1.0	.	6%
CCc1nnc(NC(=O)Cc2cc(OC)c(OC)c(OC)c2)s1	-5	19	-2.4	.	4%
CC[N+]1(CC)CC2CCC(C)(C1)C2(C)C (stereo not given)	2	3	3.8	.	2%
COc1ccc(OC)c(NC(=O)C2=C(C)Nc3ncnn3C2c2cccs2)c1 (stereo not given)	-9	1	-3.2	-5	-17%
COc1cccc(NC(=O)Cn2c3ccccc3c3nc4n(c(=O)c32)CCS4)c1	-6	10	-0.4	.	16%
COc1ccccc1NC(=O)Cc1noc(CSc2cccc[n+]2[O-])n1	18	3	2.5	-14	-3%
O=C(CCc1c[nH]c2ccccc12)NCc1cccc(Cl)c1	6	.	5.4	.	.
Cc1nonc1CN(C)C(=O)CC1C(=O)NCCN1Cc1c(F)cccc1Cl (stereo not given)	-4	-2	-22	.	-6%
COc1cc(NC(=O)COC(=O)Cc2ccc(-c3ccccc3)cc2)cc(OC)c1	9	-3	10	-31	-1%
O=[N+]([O-])c1cccc(-c2noc3c2-c2nc(Cc4cccc5ccccc45)sc2CC3)c1	-1	.	-3.5	.	.
CC(Sc1nnc(-c2ccccc2Br)o1)C(=O)N1CCOCC1 (stereo not given)	?	.	1.8	.	.
O=C(COc1ccc(Cl)cc1)NCCCNC(=O)c1ccncc1	3	.	1.7	.	.
Cc1ccc(-c2ccc(=O)n(Cc3ccc(F)cc3)n2)cc1	?	.	2.6	.	.
CCc1cc(SC#N)cc(CC)c1NC(=O)CCl	35	-11	19	6	-9%
COc1ccccc1/C=C(/C(=O)OCC(=O)Nc1ccc(N(C)C)cc1)c1ccccc1	2	-4	-0.6	0	3%
NCCCC[C@@H]1NC(=O)[C@H](CCC(=O)O)NC(=O)c2cc([N+](=O)[O-])cc(I)c2SC[C@@H](C(=O)NCC(N)=O)NC1=O	-6	6	-2.6	-2	15%
COC(=O)C1=C(C)Nc2c(c(=O)n(C)c(=O)n2C)C1c1cccnc1 (stereo not given)	9	1	0.9	1	-7%
CC1C(Br)C(=O)NC(=O)N1Cc1ccccc1 (stereo not given)	-1	4	-7.5	.	3%
CCOC(=O)c1c(C)n(C)c2ccc(OCC(O)CN3CCCCCC3)cc12 (stereo not given)	-2	-6	-1.5	-34	7%	Arbovirus inh repeat=-11
CC(=O)n1cc([C@@H]2C=C(C(=O)N3CCOCC3)O[C@H](OCc3ccc(CO)cc3)C2)c2ccccc21	8	2	2.4	.	1%
Next results.
SMILES	Mtb betalactam	Arbovirus inh	RecA intein inh	YopH PTP inh	Mtb H37Rv	others
Cc1ccc(-c2noc(CCC(=O)NCC3CCN(Cc4cccc(C)c4)CC3)n2)cc1	-3	-42	0.2	0	0%
C=C(C=O)CC1CC(O)[C@]2(C)OC3CC4OC5C[C@]6(C)O[C@]7(C)CCC8OC9C[C@]%10(C)OC%11C(C)=CC(=O)OC%11CC%10OC9C[C@@H](C)C8OC7CC6O[C@]5(C)CC5OC5C4OC3CC2O1 (stereo not given in full)	4	-21	2.3	.	15%
CC(=O)Nc1ccc(CN2CCC(Oc3ccc(C(=O)N4CCCC4)cc3)CC2)cc1	7	.	2.6	.	.
CCn1c(SCC(=O)N2CCCC(C)C2)nnc1-c1ccc(S(=O)(=O)N2CCN(C)CC2)cc1 (stereo not given)	9	3	-1.2	-6	-1%
COc1ccc(NC(=O)Cn2nnc(C(=O)NCCc3ccc(OC)c(OC)c3)c2N)c(OC)c1	-2	8	1.6	.	8%
Cc1nc2cc(Cl)ccc2n1CCO	2	4	3.2	-7	-5%
CN(C)C(=S)Nc1cccc(C(F)(F)F)c1	-8	.	0.5	.	-11%
COc1ccc(-c2noc(C3CCCN(C(=O)c4cccc(C)c4)C3)n2)cc1 (stereo not given)	2	.	1.4	.	.
CN(C)C(CNC(=O)Nc1cccc(Cl)c1)c1cccnc1 (stereo not given)	0	1	3.7	36	-14%
CCOC(=O)C1(C(F)(F)F)N=C(C(F)(F)F)Nc2cc(C)c(C)cc21 (stereo not given)	3	6	2.7	-25	-3%
O=C(Nc1ncc(Cc2ccccc2Cl)s1)c1ccc(-c2cccc([N+](=O)[O-])c2)o1	41	-6	1.1	-14	-1%
C=CCNC(=O)/C(=C/c1cccc([N+](=O)[O-])c1)NC(=O)c1ccccc1	3	17	-0.4	.	-1%
C/C(N)=C(/C#N)C(=O)CSc1nnc(NC(C)C)s1	5	8	5.8	-52	-7%
O=C(CN1CCCCC1)N1CCN(c2ccccc2)CC1	-4	.	1.7	.	.
Cc1c(C(=O)O)sc2nc(C)n(C)c(=O)c12	8	4	-0.1	-45	-6%
COC(=O)c1ccc(C2c3c(n[nH]c3C)C(=O)N2c2ccc(C)cc2)cc1 (stereo not given)	4	6	4.5	-24	17%	Arbovirus inh repeat=7
Cn1c(CNC(=O)CNC(=O)Cc2ccccc2)cc(=O)n(C)c1=O	5	.	-0.9	.	.
O=c1c2ccccc2ncn1-c1ccccc1C(F)(F)F	-4	-3	-4.5	.	-1%
Fc1ccc2c(c1)C(c1cccnc1)=NNC(c1cccs1)=N2	31	-18	3.2	-39	2%
Cc1cccc(CCNC(=O)C2CCC(=O)N(Cc3ccccc3F)C2)n1 (stereo not given)	-24	.	7.8	.	.
COc1ccc(C(=O)N2CCOC2CNC(=O)C(=O)NCCc2ccc(OC)c(OC)c2)cc1 (stereo not given)	2	.	-3.6	.	.
Cc1ccc(C(=O)C(C)OC(=O)Cc2c[nH]c3ccccc23)cc1 (stereo not given)	-6	.	5.0	.	.

Molecules above that have fluorine:
SMILES	Mtb betalactam	Arbovirus inh	RecA intein inh	YopH PTP inh	Mtb H37Rv	others
CN(C)/C=C/C(=O)/C=C/c1cn(-c2ncc(C(F)(F)F)cc2Cl)c2ccccc12	-4	-9	-6.3	1	6%
O=S(=O)(c1cc(F)ccc1F)N1CCC2(CC1)OCCN2S(=O)(=O)c1cccs1	-7	.	4.6	.	.
COc1ccc(OCc2nnc(NC(=O)Nc3ccc(F)cc3)s2)cc1	0	-6	4.6	.	-2%
CCN(CC(=O)Nc1ccccc1C(F)(F)F)C(=O)c1oc2ccc(OC)cc2c1C	3	.	6.0	.	.
Cc1cc(C(=O)N(C)CC(=O)Nc2cccc(F)c2)no1	-9	.	0.0	.	.
Cn1c2ccc(F)cc2c2nnc(SCC(=O)Nc3cccc(O)c3)nc21	1	.	1.6	.	.
Cc1cc(C(=O)Cn2cc(C(F)(F)F)ccc2=O)c(C)n1-c1ccccc1	5	-2	1.5	-21	2%
COc1cccc(C2CC(C(F)(F)F)n3nc(C(=O)NCc4cccnc4)cc3N2)c1 (stereo not given)	-2	1	0.0	-4	-1%
Cc1nonc1CN(C)C(=O)CC1C(=O)NCCN1Cc1c(F)cccc1Cl (stereo not given)	-4	-2	-22	.	-6%
Cc1ccc(-c2ccc(=O)n(Cc3ccc(F)cc3)n2)cc1	?	.	2.6	.	.
CN(C)C(=S)Nc1cccc(C(F)(F)F)c1	-8	.	0.5	.	-11%
CCOC(=O)C1(C(F)(F)F)N=C(C(F)(F)F)Nc2cc(C)c(C)cc21 (stereo not given)	3	6	2.7	-25	-3%
O=c1c2ccccc2ncn1-c1ccccc1C(F)(F)F	-4	-3	-4.5	.	-1%
Fc1ccc2c(c1)C(c1cccnc1)=NNC(c1cccs1)=N2	31	-18	3.2	-39	2%
Cc1cccc(CCNC(=O)C2CCC(=O)N(Cc3ccccc3F)C2)n1 (stereo not given)	-24	.	7.8	.	.
